Screening data as filed in PubChem BioAssay.
PABP FP inh – PABP-poly(A) binding inhibition | P11940 | inhibition, % at 35 µM | 1% of 290,000 active | PABP-poly(A) RNA binding, fluorescence polarization;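 active = 50% or more with normal probe brightness, or confirmed in later tests; about a fifth of its hits are not listed in these tables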;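 also: calls also rest on retests at 20 µM and on dose response follow-up; controls were probe without protein and protein plus probe with vehicle; some compounds called inactive have numbers as strong as hits; many hits fall short of the cut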
Target sequence (P11940 whole entry, looked up): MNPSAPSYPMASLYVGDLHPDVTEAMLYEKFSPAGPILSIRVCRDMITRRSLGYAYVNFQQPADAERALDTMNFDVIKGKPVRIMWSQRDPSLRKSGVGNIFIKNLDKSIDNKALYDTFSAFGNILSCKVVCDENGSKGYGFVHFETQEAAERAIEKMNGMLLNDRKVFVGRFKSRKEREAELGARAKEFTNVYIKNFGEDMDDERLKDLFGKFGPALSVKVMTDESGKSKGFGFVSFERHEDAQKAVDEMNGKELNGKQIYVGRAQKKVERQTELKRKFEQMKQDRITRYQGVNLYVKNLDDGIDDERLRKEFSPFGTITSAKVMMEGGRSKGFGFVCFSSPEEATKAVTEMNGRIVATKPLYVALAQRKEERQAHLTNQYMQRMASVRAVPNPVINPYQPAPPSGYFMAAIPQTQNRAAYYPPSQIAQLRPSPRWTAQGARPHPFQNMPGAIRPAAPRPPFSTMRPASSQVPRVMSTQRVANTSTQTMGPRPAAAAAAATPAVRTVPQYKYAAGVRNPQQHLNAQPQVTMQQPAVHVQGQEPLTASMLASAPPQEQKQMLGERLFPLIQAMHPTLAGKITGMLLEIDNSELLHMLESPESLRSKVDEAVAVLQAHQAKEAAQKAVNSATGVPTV
eIF4H FP inh – inhibitors of RNA binding by human eIF4H. inhibition, % at 35 µM. Q15056. 0.94% of 290,000 active. eIF4H fluorescence polarization binding assay;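 active = 50% or more with normal probe brightness, or confirmed in later tests; about a fifth of its hits are not listed in these tables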;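 also: calls also rest on retests at 20 µM and on dose response follow-up; 0% = protein and probe with vehicle and 100% = probe without protein; strong numbers were not always called active; many hits fall short of the cut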
Yeast UUG start – modulators of start codon recognition fidelity in yeast. S. cerevisiae UUG-firefly luciferase reporter, luminescence/redox ratio. activity score, % at 18.7 µM. 0.13% of 350,000 active. AID 602363;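 active = replicate mean at a twofold rise or more, about +100% in these data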;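 also: firefly luciferase made from a UUG start codon reports start codon fidelity; reporter light over untreated wells divided by growth signal over untreated wells; some hits fall short of that in this replicate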
Rce1 inhib – blocks yeast Ras-converting enzyme | Q03530 | yeast membranes, quenched prenylated peptide cleavage fluorescence | calls only | 0.27% of 290,000 active | AID 2563;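 active = fall in fluorescence gain of 50% or more versus controls, with final raw signal at or below 3038400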;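 also: plate controls were neutral control wells for no effect and wells lacking membranes for full effect; tested at 10 µM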
Target sequence (Q03530 whole entry, looked up): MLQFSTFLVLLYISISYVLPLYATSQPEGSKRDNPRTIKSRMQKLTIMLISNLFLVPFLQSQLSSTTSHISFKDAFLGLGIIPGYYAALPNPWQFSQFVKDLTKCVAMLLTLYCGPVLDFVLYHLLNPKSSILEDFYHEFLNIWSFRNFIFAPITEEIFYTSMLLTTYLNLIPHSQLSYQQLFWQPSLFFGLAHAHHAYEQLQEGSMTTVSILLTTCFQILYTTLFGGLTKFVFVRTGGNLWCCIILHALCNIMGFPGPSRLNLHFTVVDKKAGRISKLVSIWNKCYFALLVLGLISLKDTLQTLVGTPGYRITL
HIV Env fusion – inhibitors of HIV Env-mediated cell fusion; inhibition, % at 12.3 µM; 1.1% of 360,000 active; HeLa-JRFL Env/CEM21 cell fusion, luciferase; AID 651610;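 active = mean replicate inhibition score of at least 50 and every replicate individually at or above 50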;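 also: 0% = plate neutral controls and 100% = maraviroc near 300 nM; one replicate is shown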
CSC inhib – blocks cancer stem cells | cancer stem cell-like cells viability, luminescence | inhibition, % at 7.5 µM | 1.1% of 300,000 active | AID 2717;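 active = mean at 75% or more and at least half the replicates too; tested in HMLE shEcad cells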;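 also: 0% = median of negative and 100% = median of positive control wells; the first replicate is given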
MT1-MMP act inh – MT1-MMP (human) activation inhibition. P50281. HT1080 RFP-PRO-GFP cells, GFP/RFP ratio fluorescence, overnight; percent of plate control window, DMSO zero. GFP/RFP ratio change, % at 20 µM. 0.061% of 360,000 active;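 active = GFP/RFP ratio change of at least 30% with cell ATP level not reduced by more than half and red fluorescence within 50% of control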; also: strong numbers were not always called active
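Assay system – RFP-PRO-GFP reporter HT1080 cells · Compound dosing – single dose of 20 µM compound, 1% DMSO final · Incubation – overnight compound exposure at 37 °C · Measure – GFP/RFP fluorescence ratio · Benchmarks – DMSO wells and RFP-L50D-GFP cells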
eIF4H FP inh retest – second read-out of eIF4H FP inh, no call of its own (marks repeat the call); inhibition, %; compound at 20 µM; confirmation average;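 mean of two retest wells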
PABP FP inh retest – further read-out of PABP FP inh, marked with its call; inhibition, %; compound at 20 µM; confirmation repeats;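 mean of two retest wells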
MT1-MMP act inh RFP – further read-out of MT1-MMP act inh, marked with its call; RFP signal change, %; measured here: RFP expression control read;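 0 = vehicle wells; hits needed this value within 50% of zero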
* hit, by the source's call.

Nc1ccn(CC(=O)NCc2ccc3[nH]ccc3c2)c(=O)n1 was read as Yeast UUG start 1, HIV Env fusion -14, CSC inhib -5, MT1-MMP act inh 3 and MT1-MMP act inh RFP 1.
Cc1ccc(Nc2nc(=O)c3cc([N+](=O)[O-])ccc3s2)cc1 was read as PABP FP inh -6, eIF4H FP inh -16, Rce1 inhib inactive, HIV Env fusion 4, CSC inhib -4, MT1-MMP act inh 5 and MT1-MMP act inh RFP 2.
`CCC(CC)C(=O)Nc1cc(NC(=O)C(CC)CC)cc(C(=O)O)c1` gave PABP FP inh 4, eIF4H FP inh 2, Yeast UUG start -4, Rce1 inhib inactive, CSC inhib -9, MT1-MMP act inh -2 and MT1-MMP act inh RFP 2.
For COc1ccc(C(C(=O)NC2CCCCC2)N(C(=O)CCl)c2ccc(OC)cc2)cc1 (stereo unspecified) the results were PABP FP inh 4, eIF4H FP inh -13, Yeast UUG start 0, Rce1 inhib inactive, CSC inhib -11, MT1-MMP act inh -8 and MT1-MMP act inh RFP -10.
For COc1cc(NC(=S)N2CCN(Cc3ccccc3)CC2)cc(OC)c1 the results were PABP FP inh 15, eIF4H FP inh -8, Rce1 inhib inactive, HIV Env fusion 5 and CSC inhib -7.
Screening Cc1cccc(C2=NN(c3ccccc3)[C@@H](C(=O)N3CCOC3=O)[C@@H]2c2ccccc2)c1 returned Yeast UUG start -7, HIV Env fusion -97, MT1-MMP act inh -2 and MT1-MMP act inh RFP 1.
Screening CCn1c(CNC(=O)Cc2ccc(OC)cc2)nnc1SCCOc1ccccc1 returned PABP FP inh -3, eIF4H FP inh 2, Yeast UUG start -16, Rce1 inhib inactive, HIV Env fusion 11, CSC inhib 3, MT1-MMP act inh -6 and MT1-MMP act inh RFP -10.
Screening Cc1cc(C)c(Cn2cnc3ccccc32)c(C)c1 returned PABP FP inh -3, eIF4H FP inh -6, Yeast UUG start -22, Rce1 inhib inactive, HIV Env fusion 5, CSC inhib 5, MT1-MMP act inh 7 and MT1-MMP act inh RFP -6.
Screening CCOCCCNC(=O)CN1C(=O)COc2ccc(S(=O)(=O)N3CCCC3)cc21 returned PABP FP inh 4, eIF4H FP inh 3, Yeast UUG start -14, Rce1 inhib inactive, HIV Env fusion -4, CSC inhib 0, MT1-MMP act inh -4 and MT1-MMP act inh RFP 2.
O=C(CN1CCN(c2ccc(F)cc2)CC1)Nc1nnc(-c2ccccc2)s1 was read as PABP FP inh 8, eIF4H FP inh -7, Yeast UUG start -10, Rce1 inhib inactive, HIV Env fusion -349, CSC inhib 16, MT1-MMP act inh 5 and MT1-MMP act inh RFP 3.
For Cc1cccc(NCc2n[nH]c(=S)n2-c2ccccc2)c1 the results were PABP FP inh -4, eIF4H FP inh -1, Rce1 inhib inactive, HIV Env fusion 2, CSC inhib -1, MT1-MMP act inh 1 and MT1-MMP act inh RFP 3.
`CCCCCCSc1ccc([C@H]2N[C@@](C)(C(=O)OC)[C@H]3C(=O)N(CC)C(=O)[C@@H]23)cc1` gave Yeast UUG start -9, Rce1 inhib inactive, HIV Env fusion 26, CSC inhib 78*, MT1-MMP act inh 7 and MT1-MMP act inh RFP -10.
For COc1ccc(C(=O)Nc2cccc(/C=C(\CCC(=O)O)c3nc4ccccc4s3)c2)cc1 the results were PABP FP inh 22, eIF4H FP inh 65, Yeast UUG start -17, Rce1 inhib inactive, HIV Env fusion -9, CSC inhib -10, MT1-MMP act inh 10, eIF4H FP inh retest 32, PABP FP inh retest 17 and MT1-MMP act inh RFP -1.
`Cc1cc(OCC(=O)OCC(=O)Nc2cc(C(F)(F)F)ccc2N2CCOCC2)ccc1Cl` gave PABP FP inh 3, eIF4H FP inh -2, Yeast UUG start -25, Rce1 inhib inactive, HIV Env fusion -7, CSC inhib 8, MT1-MMP act inh 1 and MT1-MMP act inh RFP 0.
Screening COc1cc2cc(CCCOC(=O)c3ccco3)oc(=O)c2cc1OC returned Yeast UUG start 10, HIV Env fusion -31, CSC inhib 11, MT1-MMP act inh 10 and MT1-MMP act inh RFP 7.
CC1CN(c2nc3ccccn3c(=O)c2/C=C(\C#N)C(=O)N2CCOCC2)CC(C)O1 (stereo unspecified) was read as PABP FP inh 1, eIF4H FP inh 5, Yeast UUG start -3, Rce1 inhib inactive, HIV Env fusion 4, CSC inhib -8, MT1-MMP act inh -4 and MT1-MMP act inh RFP 5.
CCCCn1c(N)c(N(CCOC)C(=O)c2cc(-c3ccccc3)nc3ccccc23)c(=O)[nH]c1=O was read as Yeast UUG start -5, Rce1 inhib inactive, HIV Env fusion -1, CSC inhib -3, MT1-MMP act inh -3 and MT1-MMP act inh RFP 3.
Screening CCCCc1nc2cc(C(=O)NCCc3cnn(C)c3)ccc2o1 returned PABP FP inh 5, eIF4H FP inh -2, Yeast UUG start -9, Rce1 inhib inactive, HIV Env fusion -5, CSC inhib -14, MT1-MMP act inh -4 and MT1-MMP act inh RFP -3.
`CN[C@H](C)C(=O)NC[C@H]1O[C@@H](n2ccc(N)nc2=O)[C@H](O)[C@@H]1O` gave Yeast UUG start -21, HIV Env fusion 13, MT1-MMP act inh 2 and MT1-MMP act inh RFP 3.
For CCN(CC)c1ccc(/C=N/NC(=O)c2cc3ccccc3[nH]2)cc1 the results were PABP FP inh -2, eIF4H FP inh -15, Yeast UUG start -8, Rce1 inhib inactive, HIV Env fusion 3, CSC inhib 41, MT1-MMP act inh 0 and MT1-MMP act inh RFP 1.
Screening COc1ccc(C(C)(C)C)cc1NC(=O)c1cncc(Br)c1 returned PABP FP inh -14, eIF4H FP inh 0, Yeast UUG start 4, Rce1 inhib inactive, CSC inhib -6, MT1-MMP act inh -3 and MT1-MMP act inh RFP -4.
For O=C(c1ccc(N2CCCC2)c([N+](=O)[O-])c1)N1CCN(CCO)CC1 the results were PABP FP inh 18, eIF4H FP inh 10, Yeast UUG start -7, HIV Env fusion 6, CSC inhib -22, MT1-MMP act inh 3 and MT1-MMP act inh RFP 2.
Cc1cc(-n2nc(C)cc2C)nc(N)n1 was read as PABP FP inh -8, eIF4H FP inh -4, Yeast UUG start -16, Rce1 inhib inactive, HIV Env fusion -4, CSC inhib -6, MT1-MMP act inh -4 and MT1-MMP act inh RFP 4.
For CCCNC(=O)c1cccc(COCC(F)(F)F)c1 the results were Yeast UUG start 1, Rce1 inhib inactive, HIV Env fusion -111, CSC inhib -8, MT1-MMP act inh -1 and MT1-MMP act inh RFP 2.
CCOC(=O)c1cnc(SCC(=O)Nc2cc(OC)ccc2OC)nc1N was read as PABP FP inh -10, eIF4H FP inh -8, Yeast UUG start -15, Rce1 inhib inactive, HIV Env fusion 74*, CSC inhib -7, MT1-MMP act inh 12 and MT1-MMP act inh RFP -9.
For CCCNC(=O)N1CCN(c2ncccn2)CC1 the results were PABP FP inh 0, eIF4H FP inh -2, Yeast UUG start 3, CSC inhib 4, MT1-MMP act inh 2 and MT1-MMP act inh RFP 5.
`O=C(CN1CCC(O)(c2ccc3c(c2)OCO3)CC1)OC1CCCCC1` gave PABP FP inh 0, eIF4H FP inh -2, Yeast UUG start -4, Rce1 inhib inactive, HIV Env fusion 9, MT1-MMP act inh 4 and MT1-MMP act inh RFP 5.
C=C1C(=O)[C@]23C[C@H]1CCC2[C@]1(C)C(=O)CC[C@@](C)(C(=O)O)C1C[C@@H]3O (stereo partly specified) was read as Yeast UUG start -4, HIV Env fusion 4, MT1-MMP act inh 0 and MT1-MMP act inh RFP -11.
Cc1ccc(F)cc1NC(=O)c1ccc(OCC2CCCO2)cc1 (stereo unspecified) was read as Yeast UUG start -16, HIV Env fusion -21, CSC inhib -18, MT1-MMP act inh 2 and MT1-MMP act inh RFP 0.
Screening CC1=NCCN1S(=O)(=O)c1c(C(C)C)cc(C(C)C)cc1C(C)C returned PABP FP inh -8, eIF4H FP inh -2, Yeast UUG start -12, Rce1 inhib inactive, HIV Env fusion -1, CSC inhib -2, MT1-MMP act inh 0 and MT1-MMP act inh RFP -1.
Screening CCC(Oc1ccccc1)C(=O)Nc1nnc(C(F)(F)F)s1 (stereo unspecified) returned PABP FP inh 6, eIF4H FP inh 2, Yeast UUG start 1, CSC inhib 13, MT1-MMP act inh -2 and MT1-MMP act inh RFP -1.
For CCOC(=O)c1cccc(Nc2nc(-c3cccnc3)nc3ccccc23)c1 the results were PABP FP inh -26, eIF4H FP inh -18, Yeast UUG start -15, Rce1 inhib inactive, CSC inhib 92*, MT1-MMP act inh -21 and MT1-MMP act inh RFP -17.
Screening Cc1cc(C(=O)N2CCC2(C)C(=O)Nc2cccc3ccccc23)nn1C (stereo unspecified) returned Yeast UUG start -16, HIV Env fusion -3, MT1-MMP act inh 0 and MT1-MMP act inh RFP 4.
`CCC(OC(=O)c1ccco1)C(=O)NCc1ccc(C)cc1` (stereo unspecified) gave PABP FP inh -4, eIF4H FP inh 6, Yeast UUG start -19, Rce1 inhib inactive, HIV Env fusion -4, CSC inhib -20, MT1-MMP act inh 0 and MT1-MMP act inh RFP 2.
CCOc1ncccc1C(=O)OCC(=O)Nc1ccc2c(c1)OCCO2 was read as Yeast UUG start -5, HIV Env fusion -5, MT1-MMP act inh 0 and MT1-MMP act inh RFP 1.
CCOC(=O)c1c(NC(=O)CSc2nnc(C)c(=O)[nH]2)sc2c1CCC2 was read as PABP FP inh 7, eIF4H FP inh -1, Yeast UUG start -15, Rce1 inhib inactive, CSC inhib 5, MT1-MMP act inh -6 and MT1-MMP act inh RFP 0.
Screening CN1CCC23c4ccccc4NC1C21CCN(C)C3Nc2ccccc21 returned Yeast UUG start -12, Rce1 inhib inactive, CSC inhib -8, MT1-MMP act inh 4 and MT1-MMP act inh RFP 4.
CCCCc1cc(=O)oc2c(CN3CCN(C)CC3)c(O)ccc12 was read as PABP FP inh 5, eIF4H FP inh 5, Yeast UUG start -14, Rce1 inhib inactive, HIV Env fusion 10, CSC inhib -4, MT1-MMP act inh -1 and MT1-MMP act inh RFP 0.
For CN(CCCN1CCCCC1)C(=O)c1cc(COc2ccc(F)cc2F)on1 the results were PABP FP inh -12, eIF4H FP inh 2, Yeast UUG start 24, Rce1 inhib inactive, HIV Env fusion 3, CSC inhib 1, MT1-MMP act inh 3 and MT1-MMP act inh RFP 6.
`CCOC(=O)Cc1csc(NC(=O)c2ccc3ncsc3c2)n1` gave PABP FP inh -5, eIF4H FP inh -5, Yeast UUG start -20, Rce1 inhib inactive, HIV Env fusion -20, CSC inhib -3, MT1-MMP act inh 2 and MT1-MMP act inh RFP -7.

Brought forward from above: 2 compounds; new compounds follow.
For CN(CCCN1CCCCC1)C(=O)c1cc(COc2ccc(F)cc2F)on1 the results were PABP FP inh -12, eIF4H FP inh 2, Yeast UUG start 24, Rce1 inhib inactive, HIV Env fusion 3, CSC inhib 1, MT1-MMP act inh 3 and MT1-MMP act inh RFP 6.
`CCOC(=O)Cc1csc(NC(=O)c2ccc3ncsc3c2)n1` gave PABP FP inh -5, eIF4H FP inh -5, Yeast UUG start -20, Rce1 inhib inactive, HIV Env fusion -20, CSC inhib -3, MT1-MMP act inh 2 and MT1-MMP act inh RFP -7.
COc1cccc(CNCCO)c1OCc1ccccc1 was read as PABP FP inh -1, eIF4H FP inh -3, Rce1 inhib inactive, HIV Env fusion 11, CSC inhib -1, MT1-MMP act inh -2 and MT1-MMP act inh RFP 0.
`CSc1ncccc1C(=O)OCC(=O)Nc1cc(C(F)(F)F)ccc1N1CCOCC1` gave PABP FP inh 2, eIF4H FP inh 4, CSC inhib -11, MT1-MMP act inh -12 and MT1-MMP act inh RFP -7.
For CC(C)OC(=O)c1cc2c(ccn2C)n1CC(=O)N(Cc1ccccc1)c1ccc(F)cc1 the results were PABP FP inh 19, eIF4H FP inh 6, Rce1 inhib inactive, HIV Env fusion 1, CSC inhib 26, MT1-MMP act inh 0 and MT1-MMP act inh RFP -10.
O=[N+]([O-])c1ccc(/C=N/Nc2ncccc2[N+](=O)[O-])s1 was read as Yeast UUG start -23, Rce1 inhib inactive, HIV Env fusion -22, CSC inhib 10, MT1-MMP act inh 7 and MT1-MMP act inh RFP -3.
